PINK1 expr mod = A Quantitative High throughput Screen to Identify Chemical Modulators of PINK1 Expression | Potency, µM (titrated, usually from 76.6 µM), for the others: at the top dose activation (PINK1 increase), most hits filed as activators | AID 624263, 2012 | PINK1 immunofluorescence, high-content cytometry, 24 h | 0.2% of 410,000 active; active = well fitted activation curve with a large enough effect; inconclusive = small, poorly fitted or top-dose-only effect; inactive = flat fitted curve, though single readings scatter; cell line not stated here;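 note: potency is the fitted concentration of half-maximal effect; % of control where 0% means no effect; nearly all actives have a fitted effect of over 65% in size; a mitochondrial uncoupler was the plate control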
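Stable cell line treated 24 h with compounds at 5 concentrations (CCCP controls), then fixed and immunostained for PINK1 plus nuclear and cell stains; PINK1 immunofluorescence quantified by laser-scanning microplate cytometry.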
D2 ag = Beta-Arrestin HTS for Positive Allosteric Modulators of the Human D2 Dopamine Receptor: Agonists | AID 624465, 2012 | DiscoveRx PathHunter D2 beta-arrestin, luminescence, 90 min; 100% = 57 uM dopamine signal | D(2) dopamine receptor (Homo sapiens), P14416 | activation, % (concentration not given with the values) | 0.084% of 360,000 active; in the data active = activation above about 40%; inconclusive = about 15% to 40%; inactive = below about 15%; note: compound concentration not given in the record; the text of the record calls up to 30% inactive
Target sequence (P14416 whole entry, looked up): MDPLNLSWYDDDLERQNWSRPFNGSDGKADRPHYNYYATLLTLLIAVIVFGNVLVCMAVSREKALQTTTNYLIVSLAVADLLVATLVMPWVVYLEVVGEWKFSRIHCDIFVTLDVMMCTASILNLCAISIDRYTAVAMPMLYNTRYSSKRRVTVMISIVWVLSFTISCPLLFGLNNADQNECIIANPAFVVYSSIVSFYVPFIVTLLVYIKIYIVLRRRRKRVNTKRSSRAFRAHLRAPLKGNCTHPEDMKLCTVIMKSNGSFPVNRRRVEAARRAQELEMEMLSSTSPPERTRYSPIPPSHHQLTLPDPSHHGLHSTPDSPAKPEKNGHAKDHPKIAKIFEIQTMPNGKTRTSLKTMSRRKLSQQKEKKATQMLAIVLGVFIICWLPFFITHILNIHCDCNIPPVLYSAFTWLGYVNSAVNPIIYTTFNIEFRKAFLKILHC
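DiscoveRx PathHunter D2 beta-arrestin cells (2,100/well) attached overnight, then compound-stimulated 90 min at 37 C in HBSS/10 mM HEPES/0.1% Tween-20 buffer; beta-galactosidase complementation read by luminescence after 1 h at ambient temperature. Dopamine 57 uM final (EC100) as control.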
Six1-Eya2 inh = qHTS Assay for Inhibitors of the Six1/Eya2 Interaction | Homeobox protein SIX1 (Homo sapiens) + Protein phosphatase EYA2 (Homo sapiens), … | AlphaScreen GST-Six1/His-Eya2 binding, biochemical; stronger effect = lower value; control for the full effect not named in the record | activity change, % (no concentration beside the values) | 0.56% of 360,000 active | AID 651725, 2012; in the data active = activity change below about -65%; inconclusive = about -30% to -65%; inactive = above about -30%; note: % is set by controls: 0 for no effect and ±100 for the full control effect; compound concentration not given in the record
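Six1/Eya2 binding was read as AlphaScreen signal after compounds were pinned into GST-Six1 plus His-tagged Eya2 (5X stock 250/500 nM) in pH 8.0 Tris/NaCl/TCEP buffer, beads added, then incubated 1 h, 37 C, dark.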
CtBP-E1A blk = qHTS Assay for Inhibitors of the CtBP/E1A Interaction; activity change, % (no concentration beside the values); AID 651724, 2012; 0.49% of 340,000 active; AlphaScreen GST-E1A/His-CtBP binding, 1536-well; stronger effect = lower value; control for the full effect not named in the record; CtBP / adenovirus E1A interaction (AlphaScreen); in the data active means activity change below about -65%; inconclusive means about -30% to -65%; inactive means above about -30%; note: % is set by controls: 0 for no effect and ±100 for the full control effect; compound concentration not given in the record
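Steps: dispense buffer (Tris pH 8.0, NaCl 300 mM, TCEP 1 mM, BSA, Tween 20); add 5X protein mix (GST-E1A, His-CtBP, 125 nM each); pin 23 nL compound; 2 h at 37 °C, dark; add 5X beads (50 ug/mL); 1 h; read.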
TRPML1 inh = qHTS for Inhibitors of the Human Mucolipin Transient Receptor Potential 1 (TRPML1); Mucolipin-1 (Homo sapiens), Q9GZU1; TRPML1-inducible cells, Ca2+ dye fluorescence, FDSS; stronger effect = lower value; inhibition of EC80 agonist-evoked calcium signal; activity change, negative = inhibition, % (no concentration beside the values); 0.02% of 390,000 active; AID 624415, 2012; in the data active means activity change below about -50%; inconclusive means about -30% to -50%; inactive means above about -30%;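 note: stimulus is agonist 54-4 at its EC80 concentration; % is set by controls: 0 for no effect and ±100 for the full control effect; compound concentration not given in the record; the text of the record puts the active cut at -80%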
Target sequence (Q9GZU1 whole entry, looked up): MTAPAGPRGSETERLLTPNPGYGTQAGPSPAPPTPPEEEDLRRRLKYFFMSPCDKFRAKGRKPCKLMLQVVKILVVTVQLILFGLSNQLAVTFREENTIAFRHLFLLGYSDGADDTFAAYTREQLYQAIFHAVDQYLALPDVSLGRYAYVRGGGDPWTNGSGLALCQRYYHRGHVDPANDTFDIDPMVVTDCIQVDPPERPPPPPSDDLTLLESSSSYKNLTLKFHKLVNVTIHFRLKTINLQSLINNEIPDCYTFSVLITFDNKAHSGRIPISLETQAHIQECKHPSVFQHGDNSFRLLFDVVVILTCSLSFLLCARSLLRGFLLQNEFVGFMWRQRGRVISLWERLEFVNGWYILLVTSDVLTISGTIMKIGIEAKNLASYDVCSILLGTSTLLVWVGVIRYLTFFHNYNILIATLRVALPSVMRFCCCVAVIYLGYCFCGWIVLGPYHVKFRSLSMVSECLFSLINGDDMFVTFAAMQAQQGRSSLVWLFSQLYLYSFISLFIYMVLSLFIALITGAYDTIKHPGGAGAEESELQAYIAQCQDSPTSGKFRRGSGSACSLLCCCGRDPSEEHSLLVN
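Tet-induced TRPML1-DL cells loaded with Ca8 no-wash calcium dye were read kinetically on FDSS. Compound addition was followed by EC80 agonist 54-4 (4 uM final); inhibition was read over 110 s.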
TRPML1 ag = qHTS for Agonists of the Human Mucolipin Transient Receptor Potential 1 (TRPML1); 0.12% of 410,000 active; TRPML1-expressing cells, Ca2+ dye fluorescence, FDSS; host cell line not named in the record; reference of the full effect not given here; activation, % (no concentration beside the values); Mucolipin-1 (Homo sapiens), Q9GZU1; in the data active = activation above about 50%; inconclusive = about 30% to 50%; inactive = below about 30%; note: 0% is about no effect; the text of the record puts the active cut at 80%
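TRPML1-DL cells, Tet-induced overnight (~16 h, 37 degrees C), loaded 45-90 min at room temperature with Ca8 no-wash calcium dye plus quencher. FDSS fluorescence: 10 s baseline, compound pin-transfer, 110 s agonist read, then EC80 54-4 (4uM final) and 110 s antagonist read.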
Active calls of the source: *; u = inconclusive; x = not tested or not shown; & = joins results of further samples; [ ] = dose if it differs, or a comment.

cpd	structure	PINK1 expr mod	D2 ag	Six1-Eya2 inh
1	CC1=CC(C)C2C(=O)N(c3ccccc3)NC(=O)C2C1 (configuration not stated)	-0.2%	0.0	8
2	CN(CC(=O)Nc1ccccc1C(F)(F)F)C(=O)c1cc(-c2cccs2)nn1-c1ccccc1	1.1%	-5.3	-11
3	COCCN(CCOC)C(=S)Nc1ccccc1	-1.9%	5.2	-10
4	CCSc1nnc2n1C(C)(C)Cc1ccccc1-2	-0.1%	-0.7	1
5	Cc1ccc(N2CCN(S(=O)(=O)c3nnc(NC(=O)c4ccco4)s3)CC2)cc1	1.0%	-1.9	2
6	Nc1nccc(SCc2ccccc2)n1	-0.1%	-1.0	0
7	COc1ccc(N=C(C)C2=C(O)c3ccccc3C2=O)cc1	2.8%	-1.3	17
8	COc1ccc(CCNC(=O)CSc2nc(-c3ccc(F)cc3)cc(C(F)(F)F)n2)cc1OC	0.9%	x	x
9	COc1cccc(NS(=O)(=O)c2cc3[nH]c(=O)c(=O)[nH]c3cc2C)c1	1.9%	4.3	8
10	Nc1nc(SCC(=O)O)[nH]c(=O)c1NC(=O)c1ccccc1F	0.1%	-2.0	-6
11	Fc1ccccc1CSc1nnc(-c2cccnc2)o1	0.8%	-4.5	1
12	Cc1cc(NC(=O)COC(=O)CCS(=O)(=O)c2ccc(C)c(C)c2)no1	-0.2%	-0.1	11

cpd	CtBP-E1A blk	TRPML1 inh	TRPML1 ag
1	10	26	0.0
2	-1	-10	2.6
3	-3	8	2.1
4	x	4	-0.1
5	-5	18	-0.5
6	5	5	0.7
7	23	-6	-0.1
8	x	-2	0.7
9	x	-3	0.2
10	-2	11	0.0
11	x	-8	0.6
12	-8	71	-0.2

More records:
cpd	structure	PINK1 expr mod	D2 ag	Six1-Eya2 inh
13	C=CCC(C=C)[N+]1(CC(=O)OC)CCCCC1 (configuration not stated)	2.8%	1.6	3
14	CC(C)NC(=O)N(C)C[C@H]1Oc2c(NC(=O)Cc3ccccc3)cccc2C(=O)N([C@H](C)CO)C[C@@H]1C	-0.4%	-2.6	9
15	COC(=O)Nc1ccc(SCC(=O)c2ccccc2)cc1	0.7%	0.7	0
16	Cc1ccc2[nH]c(C(=O)Nc3ccccc3)cc2c1	-0.6%	x	x
17	CCCCNC(=O)NS(=O)(=O)c1ccc(NC(=O)CCC(=O)c2cccs2)cc1	1.0%	2.9	5
18	CCNC(=O)C1CCCN(C(=O)Cc2ccc3ccccc3c2)CC1 (configuration not stated)	1.1%	-2.3	3
19	COc1ccc2nc(SC(C)C(=O)NCC(=O)Nc3ccc(F)c(F)c3F)[nH]c2c1 (configuration not stated)	-1.6%	-1.2	-10
20	O=C(O)c1cccnc1NC1CCCC1	x	-1.7	-4
21	COc1ccc(-c2nnc(NC(=O)C(C)C)s2)c(OC)c1	6.1%	-1.0	-6
22	COc1ccc(/C=C/C(=O)OCC(=O)NCc2ccco2)c(OC)c1	7.1%	4.1	-7
23	Cc1ccc(-c2csc(/C=C3/SC(C)C(=O)N3CC(=O)Nc3ccccc3F)n2)cc1 (configuration not stated)	4.4%	1.3	-2
24	O=S(Cc1ccccc1)Cc1ccccc1	0.4%	-3.5	4

cpd	CtBP-E1A blk	TRPML1 inh	TRPML1 ag
13	0	4	0.6
14	-18	-18	0.9
15	-2	-3	2.2
16	x	11	-0.6
17	4	26	1.7
18	4	u	-0.3
19	-5	14	-0.9
20	-13	-15	-0.1
21	3	8	1.4
22	3	2	0.2
23	-6	-4	0.4
24	12	x	x

Next compounds follow:
cpd	structure	PINK1 expr mod	D2 ag	Six1-Eya2 inh
25	c1cc2c(cc1C1=NNC(=NC3CC3)SC1)OCCO2	-2.3%	9.1	1
26	CCCCCC(=O)NC(=S)Nc1ccc(NC(=O)c2ccco2)cc1	6.3%	0.6	0
27	COc1ccccc1CNc1ccc(-c2nc(-c3cccc(C)c3)no2)cc1[N+](=O)[O-]	-0.7%	x	x
28	Cc1ccccc1N(CC(=O)Nc1ccccc1C(=O)O)S(C)(=O)=O	0.3%	-1.2	-3
29	Cc1ccc(C(=O)NCCCNC(=O)COc2ccc(C)c(C)c2)cn1	0.7%	-3.6	3
30	CCC(=O)N1CCc2cc(S(=O)(=O)NCCC(=O)NCc3ccccc3Cl)ccc21	-0.4%&0.8%	2.0	-9
31	CCOC(=O)NC(=O)/C(C#N)=N/Nc1ccc(F)cc1	-2.3%	-1.9	1
32	CCCCN(C(=O)CCNC(=O)NC12CC3CC(CC(C3)C1)C2)c1c(N)n(CCCC)c(=O)[nH]c1=O	1.2%	-7.0	2
33	COc1ccc(NC2=C(C(C)=O)C(c3ccc(OC)cc3)C(C(C)=O)C(C)(O)C2)cc1 (configuration not stated)	0.8%	4.8	-4
34	O=c1c2ccccc2nc(/C=C/c2ccc([N+](=O)[O-])cc2)n1CCCO	2.5%	12	-10
35	C=CCn1c(SCC(=O)c2ccc(Cl)s2)nc2ccccc2c1=O	4.0%	-1.7	0
36	Cc1cccc(C)c1Nc1nnc(SCC(=O)NCCCN2CCCC2=O)s1	0.4%	-1.4	1

cpd	CtBP-E1A blk	TRPML1 inh	TRPML1 ag
25	x	3	-0.2
26	-3	9	1.7
27	x	-4	0.3
28	-10	-7	-0.3
29	-3	2	0.2
30	-14	5&-1	-1.3&0.3
31	-1	12	0.6
32	1	17	1.2
33	x	2	-0.4
34	u	11	2.9
35	5	-5	1.4
36	5	3	-0.1

Additional records follow:
cpd	structure	PINK1 expr mod	D2 ag	Six1-Eya2 inh
37	Cc1ncc(CO)c(/C=N/Nc2cccc(Cl)n2)c1O	-1.4%	7.3	-26
38	O=C(NC1CCCc2ccccc21)C(Cc1ccccc1)NS(=O)(=O)c1cccs1 (configuration not stated)	4.8%	-0.3	12
39	Cc1cccc(OCCNS(=O)(=O)c2ccc(Cl)cc2)c1	2.4%	-4.4	5
40	Cc1ccc(SCCNC(=O)c2ccccc2C)cc1	-2.1%	-2.4	6
41	Cc1cc(C(=O)Nc2ccc(N3CCOCC3)c3nonc23)ccc1[N+](=O)[O-]	u	1.4	-4
42	Cc1ccc2c(CN3CCN(c4ccccc4F)CC3)cc(=O)oc2c1	0.7%	-0.4	-1
43	Cc1cccc(Cn2c(SCc3ccc(C(=O)NCc4ccccc4)cc3)nc3cccnc32)c1	4.4%	x	x
44	COc1ccc(OC)c(CN2CCN(C(=O)c3ccc(C)c(S(=O)(=O)Nc4ccccc4OC)c3)CC2)c1	2.1%	5.5	-22
45	CC1CN(C(=O)c2cc(S(=O)(=O)N3CCN(c4ccccc4)CC3)ccc2Cl)CC(C)O1 (configuration not stated)	1.9%	4.9	-3
46	O=C(CSc1nnc(CNC(=O)c2ccc(F)cc2)o1)NCc1ccccc1	0.3%	-1.0	0
47	COc1ccc(/C(C)=N/Nc2cccc(C(=O)O)c2)cc1OC	5.9%	-1.5	-15
48	COc1cccc(NC(=O)COc2c(F)c(F)c(C(F)(F)F)c(F)c2F)c1	3.0%	2.0	13

cpd	CtBP-E1A blk	TRPML1 inh	TRPML1 ag
37	u	-21	0.9
38	11	23	3.3
39	1	6	-0.1
40	0	-7	1.7
41	-9	-27	-0.3
42	2	x	-0.7
43	x	15	0.3
44	x	-12	-0.1
45	-2	-15	-1.1
46	4	8	-0.4
47	-1	-19	-0.6
48	25	-4	0.4

4 compounds drawn at random from those above:
cpd	structure	PINK1 expr mod	D2 ag	Six1-Eya2 inh
44	COc1ccc(OC)c(CN2CCN(C(=O)c3ccc(C)c(S(=O)(=O)Nc4ccccc4OC)c3)CC2)c1	2.1%	5.5	-22
43	Cc1cccc(Cn2c(SCc3ccc(C(=O)NCc4ccccc4)cc3)nc3cccnc32)c1	4.4%	x	x
48	COc1cccc(NC(=O)COc2c(F)c(F)c(C(F)(F)F)c(F)c2F)c1	3.0%	2.0	13
46	O=C(CSc1nnc(CNC(=O)c2ccc(F)cc2)o1)NCc1ccccc1	0.3%	-1.0	0

cpd	CtBP-E1A blk	TRPML1 inh	TRPML1 ag
44	x	-12	-0.1
43	x	15	0.3
48	25	-4	0.4
46	4	8	-0.4

(continued)
cpd	structure	PINK1 expr mod	D2 ag	Six1-Eya2 inh
49	Cc1ccc(C(=O)OCC(=O)NCc2ccco2)cc1	-1.3%	-1.2	-2
50	O=C(Cc1ccc(S(=O)(=O)N2CCOCC2)s1)Oc1ccc(F)cc1	0.5%	13	0
51	COc1ccc(-c2csc(NC(=O)CS(=O)(=O)c3ccccc3)n2)cc1	3.9%	9.4	-5
52	CCn1ccnc1CN(C)Cc1cn[nH]c1-c1ccc(OC)c(F)c1	u	1.1	-3
53	Cc1nnc(SCC(=O)NC2CCCc3ccccc32)n1-c1ccccc1 (configuration not stated)	-1.9%	0.1	-6
54	COc1ccc([C@@H]2CC=C(C(=O)O)[C@H](c3ccc(C)cc3)N2S(=O)(=O)c2ccccc2C)cc1	-1.0%	-3.4	8
55	O=C(NCc1ccccc1OC(F)(F)F)C1CCC(=O)N(Cc2ccccn2)C1 (configuration not stated)	-1.0%	0.3	2
56	O=C(OCc1nnc(-c2ccc([N+](=O)[O-])cc2)o1)c1ccc(F)c(S(=O)(=O)N2CCOCC2)c1	3.5%	4.3	4
57	CC(=O)Nc1cc(-c2ccc(C(=O)NC3CC3)cc2)cn2c(-c3ccc(F)c(Cl)c3)cnc12	4.8%	5.5	-4
58	COc1ccc(N2C3=[N+](CC2(C)O)c2ccccc2CC3)cc1 (configuration not stated)	0.2%[38.3 µM]	-1.3	1
59	COC(=O)[C@H](C(C)C)N(Cc1ccccc1)S(=O)(=O)CCN1CCN(c2ccccc2)CC1	0.4%	0.0	-27
60	CCN(CC)S(=O)(=O)c1ccc(N/N=C(\C)c2ccncc2)nc1	-1.1%	-5.2	-7

cpd	CtBP-E1A blk	TRPML1 inh	TRPML1 ag
49	1	-3	-0.4
50	-20	-1	1.2
51	-1	-6	-0.6
52	-20	-13	0.1
53	-14	-4	-0.5
54	8	17	-0.2
55	11	38	0.9
56	0	8	2.5
57	-2	x	-0.9
58	1	12	0.1
59	u	-19	3.5
60	-7	-7	0.5

Screening results as filed in PubChem.

Rows were taken by chance; 1% or so of the library scored in one or more.
